# HPGD block: qHTS Assay for Inhibitors of HPGD (15-Hydroxyprostaglandin Dehydrogenase); 15-hydroxyprostaglandin dehydrogenase [NAD(+)] (Homo sapiens), P15428; purified HPGD, NADH fluorescence kinetic, PGE2 substrate; Potency, µM, inactives show top-dose activity change, negative = inhibition, actives largely listed as inhibitors; hit rate 4.3% among 150,000; active = well fitted inhibition curve with a large enough effect (not every such curve was filed as active); inconclusive = small, poorly fitted or top-dose-only effect, or another doubt; inactive = no such curve, though single readings can be large or run the other way;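 note: top concentration of the series not given in the record; plate controls included wells without enzyme; inactives centre near -10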
# Target sequence (P15428 whole entry, looked up): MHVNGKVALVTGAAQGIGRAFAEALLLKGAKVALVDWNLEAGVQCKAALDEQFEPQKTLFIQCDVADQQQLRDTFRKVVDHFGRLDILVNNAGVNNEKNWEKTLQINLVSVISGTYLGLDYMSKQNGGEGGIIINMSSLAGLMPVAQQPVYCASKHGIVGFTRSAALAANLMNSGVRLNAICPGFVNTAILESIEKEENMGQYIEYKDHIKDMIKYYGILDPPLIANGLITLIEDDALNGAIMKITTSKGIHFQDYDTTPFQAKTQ
#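 20 nM HPGD preincubated 15 min at room temperature with compound in 50 mM Tris-HCl pH 8, 0.01% Tween 20. Started with 1 mM NAD+ and 30 uM prostaglandin E2; NADH fluorescence (360/450 nm) read 5 times over 30-s intervals, last minus first.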
# Numbers without * were called inactive; ? = inconclusive; & = joins results of further samples; [ ] = remark or other dose. % is set by controls: 0 for no effect and ±100 for the full control effect; potency is the fitted concentration of half-maximal effect.
HPGD block,Structure
-3%,Cn1c(CCCCCN)nc2ccccc21
25µM*,COc1cc(Nc2ccccc2Cl)c([N+](=O)[O-])nc1[N+](=O)[O-]
-17%,CN1CCN(S(=O)(=O)c2ccc3[nH]c(=O)oc3c2)CC1
-11%,CCOC(=O)c1ccc(S(=O)(=O)N2CCN(CC3CC=CCC3)CC2)cc1 (configuration not stated)
-22%,CC(C)(C)n1ncc2c(=O)n(CC(=O)c3ccc(Cl)cc3)cnc21
-1%,CCOC(=O)c1cc(NC(=O)Nc2ccc(OC)c(OC)c2)c(C)nc1C
-15%,O=C(CSc1ncc(-c2ccccc2)[nH]1)Nc1cccc(O)c1
-7%,COc1cc(C(=O)N2CCN(c3ccc([N+](=O)[O-])cc3)CC2)ccc1OCc1c(C)noc1C
-7%,Cc1cc(C(=O)N/N=C/c2ccccc2Br)no1
-5%,COc1ccc(Cl)cc1C(=O)NNC(=O)c1cccnc1
-2%,Cc1cccc(OCC(=O)Nc2cc(C)c(C)cc2O)c1
-7%,CSc1nc(-c2ccccc2)nc(C(Cl)Cl)n1
-18%,CC(C)c1ccc(C(=O)CSc2n[nH]c(-c3ccncc3)n2)cc1
-8%,Cc1cc2occ(CC(=O)NCc3cccs3)c2cc1C(C)C
?,CSc1sc2ccccc2[n+]1CCCS(=O)(=O)[O-]
-25%,CC(C)(C)n1nc2c(c1NC(=O)COc1ccc(Cl)cc1)CSC2
-13%,CC(=O)C1=C(O)C(=O)N(CCC(=O)O)C1c1ccccc1Cl (configuration not stated)
-11%,O=C(NNC(=O)c1cccs1)c1ccc(Cl)cc1
-13%,Cc1ccc(NC(=O)Cn2c(=O)n(Cc3ccco3)c(=O)c3ccccc32)c(C)c1
-10%,N#Cc1ccccc1CN1C(=O)S/C(=C/c2cccn2-c2cccc(C(=O)O)c2)C1=O
-4%,O=C(NCc1ccccc1)C1CCN(S(=O)(=O)N2CCCCCC2)CC1
-13%,O=c1cnnc(NCc2ccccc2)[nH]1
11µM*,O/N=C1/CCCSc2ccccc21
-24%,COc1cccc2c(=O)cc(C)n(CC(=O)Nc3cccc(C)c3)c12
?,CC(C)(C)OC(=O)NCCCCC1=CC2=CC(=O)C(C)(OC(=O)c3cccs3)C(=O)C2=CO1 (configuration not stated)
1%,Cc1onc(-c2ccccc2)c1C(=O)N1CCOCC1
-4%,COc1ccc(N(C(=O)c2cccc(OC)c2OC)C2C=CS(=O)(=O)C2)c(OC)c1 (configuration not stated)
-3%,COc1cc(N)c(Cl)cc1C(=O)CCC1CCN(CCNS(C)(=O)=O)CC1
-6%,COc1ccc(NC(=O)CC2C(=O)N(c3ccc(Cl)cc3)C(=S)N2NC(=O)c2cccc(F)c2)cc1 (configuration not stated)
-13%,O=C(Cc1ccc(S(=O)(=O)N2CCOCC2)s1)Nc1nc2c(s1)CCCC2
-8%,CCNC(=O)c1c(C)[nH]c(C(=O)OCC)c1C
?,Cc1cccc2c(C(=O)n3cccn3)cc(-c3ccccc3Cl)nc12
-27%,CC1(C)Cc2c(C#N)c(SCC(=O)c3ccccc3)nc(N3CCOCC3)c2CS1
-1%,COCCN(C(=O)CCCC(=O)Nc1ccccn1)C(C(=O)NC1CCCC1)c1ccc(C)cc1 (configuration not stated)
-9%,CCN(CC(=O)NCCc1ccccc1)S(=O)(=O)c1ccc(C)cc1
-8%,CS(=O)(=O)N(CC(=O)Nc1ccc2c(c1)OCO2)Cc1ccc(Cl)cc1
-11%,c1ccc2sc(NC3=NCN(C4CCCCC4)CN3)nc2c1
10µM*,Cc1ccccc1NC(=O)c1cc(C(=O)c2cc(Cl)ccc2O)cn(-c2ccccc2C)c1=O
-11%,Cc1cc(SCC(=O)c2ccccc2)nc(C)n1
-9%,CCOC(=O)C1C(C(=O)OC)=C(C2=CCCCC2)c2ccccc2N1S(=O)(=O)C(F)(F)F (configuration not stated)
-16%,O=C(Cc1ccccc1F)Nc1ccc(Cl)nc1
100%[activator],CC(=O)c1cc2c(cc1NC(=O)CN1CCC(Cc3ccccc3)CC1)OCO2
6%,COc1ccc(OC)c(N(CC(=O)Nc2ccc(NC(C)=O)cc2)S(C)(=O)=O)c1
-7%,NC(=O)N/N=C/c1c(F)cccc1F
-5%,CC(=O)N1CCC(N(CCN2CCOCC2)C(=S)Nc2cc(C)ccc2C)CC1
-7%,O=c1[nH]c(CN2CCN(C/C=C/c3ccccc3)CC2)nc2ccccc12
-1%,Cc1ccc2nc(Nc3ccc4[nH]c(=O)[nH]c4c3)c(-n3nc(C)cc3C)nc2c1
-9%,COc1ccc(-c2cc(-c3ccc(OC)cc3)nc(-c3ccc4c(c3)NC(=O)CO4)c2)cc1
-29%,O=C(CC(Sc1n[nH]c(-c2ccccc2)n1)c1ccccc1)NCc1ccccc1 (configuration not stated)
0%,CC(C)(C)NC(=S)NC(=O)C12CC3CCC(CC(C3)C1)C2
-6%,CCCCCOCC1CC(C/C(C)=N/Nc2nc(-c3ccccc3)cs2)C(=O)O1 (configuration not stated)
-16%,COC(=O)CC1=NC(=O)CS1
-2%,N/C(=N\OC(=O)c1cccc([N+](=O)[O-])c1)c1cccnc1
-12%,Cc1cc(C(=O)Nc2ccon2)cs1
-11%,O=C(OCC(=O)N1CCN(C(=O)c2ccco2)CC1)c1cc(-c2cccc(Br)c2)nc2ccccc12
?,O=C(CSc1nc2ccc(NC(=O)CSc3nnnn3Cc3ccccc3)cc2s1)Nc1ccccc1
-9%,COc1ccc2c(c1)OC[C@H]1c3cc4c(cc3O[C@@H]21)OCO4
-2%,CCOc1cc(OCC)cc(C(=O)Nc2cccnc2)c1
-17%,CCOC(=O)C1=C(c2ccccc2)O/C(=C(\C(=O)OC)C(F)(F)F)S1
-8%,Cc1ccc(CNC(=O)CCCn2c(=O)[nH]c3ccccc3c2=O)cc1

# Additional records:
HPGD block,Structure
-9%,CCOc1ccccc1NC(=O)CSc1nnc(-c2cnccn2)n1C
-3%,O=C1CSC(=Nc2ccccc2)N1
-18%,Cc1ccccc1OCC(=O)NCC1CCCO1 (configuration not stated)
-10%,Cc1ccc(Nc2ncnc3sc(C)c(C)c23)cc1C
-10%,COc1ccc(-c2cc(C(=O)N3CCN(C(c4ccccc4)c4ccccc4)CC3)no2)cc1
?,CCCCOc1ccc(/C=C/C(=O)OCC(=O)N2CC(=O)Nc3ccccc32)cc1OCC
2%,CCOC(=O)CN1CC23C=CC(O2)C(C(=O)O)C3C1=O (configuration not stated)
-14%,Cc1c(O)nc(SC2CC(=O)N(c3ccccc3)C2=O)[nH]c1=O (configuration not stated)
-17%,COC(=O)c1c(NS(=O)(=O)c2ccc(C)cc2)sc2c1CCC(C)C2 (configuration not stated)
-6%,Cc1ccc(C)c(NC2=NS(=O)(=O)c3ccccc32)c1
-7%,CCCCOCCCNC(=O)COc1ccccc1
-29%,O=C(Nc1ccc(S(=O)(=O)N2CCCCC2)cc1)c1ccc(CN2CCc3ccccc3C2)cc1
2%,CCCCCNC(=O)c1cc(S(=O)(=O)N2CCCCC2)ccc1F
-8%,CC(=O)Nc1ccc(C(=O)Cn2nnc3ccccc3c2=O)cc1
-6%,CCOc1ccc2c(c1)N(C(=O)CN1C(=O)CCC1=O)C(C)(C)C=C2C
-19%,C/C(=N\N=C(c1ccccc1)c1ccccc1)c1cccs1
-5%,Cc1nc2ccc(S(=O)(=O)NCC(=O)N3CCC(N4CCCCC4)CC3)cc2s1
-8%,C/C(=N\NC(=O)c1ccc(CSc2nncn2C)cc1)c1ccc(C#N)cc1
?,O=C1NC(=S)N/C1=C/c1cc([N+](=O)[O-])ccc1O
-12%,COc1cccc(/C=N/NC(=O)c2ccccc2)c1OS(=O)(=O)c1ccccc1
-22%,Cc1ccc(O)c(/C=N/NC(=O)c2[nH]ncc2Br)c1
-10%,COc1ccc(CN2C(=O)NC3(CCCCC3)C2=O)cc1F
-7%,COc1ccc(N2CCN(C(c3cc(OC)ccc3OC)c3nnnn3Cc3ccco3)CC2)cc1 (configuration not stated)
0.28µM*,Cc1ccc(C(=O)N2CCSCC2)cc1
3%,CCOC(=O)C1=C(C)NC(=O)NC1
1%,CCOC(=O)Cn1c(=O)oc2cc(S(=O)(=O)N3CCCC(C(=O)OCC)C3)ccc21 (configuration not stated)
-20%,CCOC(=O)c1c(NC(=O)CSc2nnc(CNc3ccc(F)cc3)o2)sc(C)c1C
-2%,COc1ccc(CNC(=O)c2cnn3c(C(F)F)cc(C)nc23)cc1
-12%,Cc1ccc(-c2ccc(CCC(=O)O)n2-c2ccc(O)cc2)cc1
-15%,O=C(CCCO)N/N=C/c1ccccc1[N+](=O)[O-]
?,Cn1c(=O)[nH]c(=O)c2c1nc(N1CCCCCC1)n2CCCSc1nc2ccccc2o1
-2%,CCC1(CC)C(=O)N(C)C(=O)NC1=Nc1ccccc1
-7%,Cc1nnc(SCC(=O)Nc2nc(C(C)(C)C)cs2)s1
-12%,CC/C(=N\NC(=O)c1csc(C)c1C)c1cccs1
-11%,Cc1ccc(/C(N)=N/OC(=O)c2ccc3c(c2)OCO3)cc1
28µM*,COCCCN=C(c1ccco1)n1c(=S)nc(-c2ccco2)n(CCCOC)c1=S
-7%,CC(C)Cc1nc2n[nH]c(N)c2c2c1CCCC2
-5%,O=c1c2ccccc2nc(COc2ccccc2)n1/N=C/c1cn[nH]c1-c1ccccc1
-19%,O=C(CSCC(=O)N1CCCCC1)Nc1nc(-c2cccs2)cs1
-6%,COc1ccc(Cl)cc1N(CC(=O)Nc1ccccc1SC)S(C)(=O)=O
-10%,CC(C)c1ccc(-c2nc(N3CCCC3)nc3n[nH]c(N)c23)cc1
-11%,C=CCN1C(=O)C(Cc2cccc(C)c2)SC1=Nc1ccc(C(=O)O)cc1 (configuration not stated)
-19%,CSc1nc(C)cc(OCC(=O)N/N=C/c2ccccc2O)n1
-14%&0%,CCCCCCCCCCCCC/C=C/[C@@H](O)[C@@H](N)CO
-10%,Fc1ccccc1CSc1nnc(Cn2cnc3ccccc32)n1-c1ccccc1
0%,CCOc1ccc(N(CC(=O)NCc2ccc(OC)cc2)S(=O)(=O)c2c(C)noc2C)cc1
-11%,CCN(CC)S(=O)(=O)c1ccc2oc(Nc3ccc4c(c3)OCCO4)nc2c1
-15%,CCN(C(=O)c1ccc(NC(C)=O)cc1)c1ccccc1C

# Rewritten in CSV form: 3 of the compounds above
smiles,HPGD block
O=C(CCCO)N/N=C/c1ccccc1[N+](=O)[O-],-15%
Cn1c(=O)[nH]c(=O)c2c1nc(N1CCCCCC1)n2CCCSc1nc2ccccc2o1,?
CCC1(CC)C(=O)N(C)C(=O)NC1=Nc1ccccc1,-2%

# Further compounds follow.
HPGD block,Structure
-8%,COc1cccc(C(=O)Nc2c3c(nn2-c2cccc(C)c2C)CS(=O)C3)c1OC (configuration not stated)
?,CSc1nc2nccc(-c3ccc(-c4ccccc4)cc3)n2n1
-8%,Cc1cc2ncn(CCCCOc3ccccc3)c2cc1C
-9%,O=C(CCc1n[nH]c(=O)[nH]c1=O)N1CCOCC1
-8%,CCOc1ccc2c(c1)C(=NNC(=O)c1ccncc1)c1cc(OCC)ccc1-2
-2%,COc1ccc(C(=O)N2CC3(CC(c4ccc(Cl)cc4)=NO3)C[C@H]2C(=O)NCC(N)=O)cc1 (some centres not stated)
35µM*,COc1ccc(-c2nnc3n2-c2ccccc2SC3)cc1OC
-20%,COc1ccc(NC(=O)Cn2cccc2)c(OC)c1
-15%,Cc1cc2nc(SCC(=O)O)nc(C)c2cc1C
2%,O=C(CN1CCCC1=O)NC1C2CC3CC(C2)CC1C3 (configuration not stated)
-9%,Cc1ccccc1C(N)=O
-10%,CCOC(=O)Cn1nnc(-c2ccc(SC)cc2)n1

# A second format for some results above.
Compound: COc1ccc(NC(=O)Cn2cccc2)c(OC)c1
  HPGD block: -20%

Compound: COc1ccc(N2CCN(C(c3cc(OC)ccc3OC)c3nnnn3Cc3ccco3)CC2)cc1 (configuration not stated)
  HPGD block: -7%

Compound: Cc1cc(C(=O)N/N=C/c2ccccc2Br)no1
  HPGD block: -7%

Compound: CCOc1ccc2c(c1)N(C(=O)CN1C(=O)CCC1=O)C(C)(C)C=C2C
  HPGD block: -6%

# New compounds follow.
HPGD block,Structure
-15%,CS(=O)(=O)N(Cc1ccccc1)c1ccc(C(=O)Nc2cccnc2)cc1
-11%,CCCCCCOC1(c2ccccc2)OC(=O)c2ccccc21 (configuration not stated)
-15%,Cc1cccc(Cn2c(NCCO)nc3c2c(=O)n(C)c(=O)n3C)c1
-1%,Cn1c(=O)[nH]c(=O)c2c1nc(CN1CCN(Cc3ccccc3)CC1)n2CC(N)=O
-26%,O=C(NCCNc1ccc([N+](=O)[O-])cc1C(F)(F)F)c1ccccc1
?,CCCCNC(=S)N(Cc1ccco1)Cc1cc2cc3c(cc2[nH]c1=O)OCCO3
-9%&-9%,Cc1cccc(Nc2ccncc2S(=O)(=O)NC(=O)NC(C)C)c1
32µM*,COc1cccc(-c2nn3c(-c4ccccn4)nnc3s2)c1
-11%,CCN1C(=O)S/C(=C/c2c(OCc3ccc(C(=O)O)cc3)ccc3ccccc23)C1=O
-12%,Cc1ccn2cc(C(=O)Nc3ccccc3N3CCOCC3)nc2c1
-7%,CCN(CC)c1nc(SCCOC(=O)Nc2ccccc2)nc(N(CC)CC)n1
-13%,COCCn1c(SCC(=O)NC(=O)NCc2ccccc2)nc2ccccc21
-7%,CCCOC(=O)C1[C@H]2C(=O)N(C(C)c3ccc(OC)cc3)C[C@]23C=C[C@H]1O3 (some centres not stated)
-17%,O=C1CC(CC(=O)N/N=C/c2ccccc2[N+](=O)[O-])=NN1
-5%,C=C(C)C(=O)/C=C/c1ccc(C(F)(F)F)cc1

# Not all compounds are listed; count on the stated rates, not on these rows.
